Screening results from PubChem.
HTT promoter inh – Primary qHTS for Identification of Small Molecule Inhibitors of Huntingtin Promoter Activity; 0.93% of 48,000 active; Potency, µM (highest dose often 57.5 µM), for the others: at the top dose activity change, negative = inhibition, most hits filed as inhibitors; AID 1508623, 2021; HEK293 HTT promoter firefly luciferase reporter (activity 0% = vehicle and -100% = no light), 24 h; active = well fitted inhibition curve with a large enough effect; inconclusive = small, poorly fitted or top-dose-only effect; inactive = no such curve, though single readings can be large or run the other way; also: nearly all actives have a fitted effect of over 50% in size
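Quantitative HTS used concentration series of up to 57.5 uM final on HEK293 luciferase reporter cells, 24 h at 37 degrees C. Readout was Dual-Glo firefly luminescence.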
PMP22 txn – Cell-based coincidence reporter assay to measure PMP22 gene transcription in S16 Pmp22-F2sN cells - Primary screen | S16 Pmp22-F2sN Schwann cells (luciferase reporters placed in the Pmp22 gene), FLuc/NLuc coincidence luminescence, 24 h | Potency, µM (series often up to 57.5 µM), for inactives: at the highest dose activity change, negative = inhibition, most hits filed as inhibitors | 2% of 43,000 active | AID 1508649, 2021; active = clear falling dose curves in both reporters; inconclusive = both reporters move, but less clearly or upward; inactive = either reporter flat; the % is the NLuc reporter signal; also: % is scaled to controls: 0 for no effect and ±100 for the full control effect; some results filed as inactive show a strong effect at the top dose
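S16(c9) Schwann cells with FLuc/NLuc coincidence reporter in the Pmp22 3' UTR; compounds pin-transferred, 24 h at 37C. Dual-luciferase read: FLuc first, then NLuc after Stop&Glo, each 10 min at room temperature.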
* = called active by the depositor; [ ] = another dose, or the depositor's remark. Potency is read from the fitted curve at half-maximal effect. Random draw from the library. About 2.7% of those tested had a hit in this group.

COc1ccc(CCn2c(=O)c3cccnc3n(CC(=O)Nc3cccc(C)c3)c2=O)cc1OC was read as HTT promoter inh 10% and PMP22 txn -25%.
For COc1ccc(C2C=C(c3ccccc3)Nc3nc(NC(=O)/C=C/c4ccccc4Cl)nn32)cc1 (stereo unspecified) the results were HTT promoter inh inconclusive and PMP22 txn inconclusive.
For COc1cc(Cl)c(C)cc1NC(=O)c1cc(S(=O)(=O)N2CCCC2)ccc1F the results were HTT promoter inh -8% and PMP22 txn 4%.
`Clc1cccc(CNCCCSc2nnnn2-c2ccccc2)c1` gave HTT promoter inh -8% and PMP22 txn 2%.
COc1ccc(CNS(=O)(=O)c2ccc(N3CCCCS3(=O)=O)cc2)cc1 was read as HTT promoter inh inconclusive and PMP22 txn inconclusive.
`O=C(CN1c2ccccc2S(=O)(=O)c2ccccc21)Nc1cccc(C(F)(F)F)c1` gave HTT promoter inh -20% and PMP22 txn 6%.
Screening CC(=O)N1CCOc2cc(S(=O)(=O)NCc3ccccc3Cl)c(C)cc21 returned HTT promoter inh -1% and PMP22 txn -10%.
`CCC1CCCCN1CCCNC(=O)c1c(O)nc2cc(C)ccn2c1=O` (stereo unspecified) gave HTT promoter inh -1% and PMP22 txn -8%.
`COCCNC(=O)c1nn(-c2ccc(C)cc2)c(=O)n(C)c1=O` gave HTT promoter inh -8% and PMP22 txn 2%.
Cc1cccc(-n2c(SCC(N)=O)nc3c(oc4ccccc43)c2=O)c1 was read as HTT promoter inh -18% and PMP22 txn -14%.
For O=C(NCc1ccccc1Cl)c1ccc2c(c1)N(Cc1ccccc1)C(=O)c1ccccc1S2 the results were HTT promoter inh -13% and PMP22 txn -12%.
`Cc1ccc(/C=C/C(=O)N2CCC(c3nc4ccccc4o3)CC2)cc1` gave HTT promoter inh 19% and PMP22 txn -1%.
`O=C(Nc1sc2c(c1C(=O)NCc1ccco1)CCCC2)c1cc(=O)c2cc(Cl)ccc2o1` gave HTT promoter inh 3% and PMP22 txn -2%.
Screening CCCS(=O)(=O)c1nc(S(=O)(=O)c2ccc(C)cc2)c(N(C)Cc2ccccc2)s1 returned HTT promoter inh inconclusive and PMP22 txn -14%.
`Cc1ccc(-n2nc(C)c3c(C(=O)Nc4ccc(Br)c(C)c4)cc(C)nc32)cc1` gave HTT promoter inh -8% and PMP22 txn -8%.
Cc1ccc(S(=O)(=O)N(CCc2ccccc2)CC(=O)Nc2ccccc2C)cc1 was read as HTT promoter inh -34% and PMP22 txn -25%.
Cc1ccc(NC(=O)CC2Nc3ccccc3NC2=O)cc1C (stereo unspecified) was read as HTT promoter inh -7% and PMP22 txn 0%.
CC(C)CCNC(=O)c1ccc(Cn2c(=O)c3cccn3c3cccnc32)cc1 was read as HTT promoter inh -12% and PMP22 txn inconclusive.
`COc1ccc(NS(=O)(=O)c2ccc(N)cc2)nn1` gave HTT promoter inh 9%.
Screening CCOc1ccccc1C(=O)NCc1ccc2c(c1)CCN2C(C)=O returned HTT promoter inh -19% and PMP22 txn inconclusive.
Screening Cc1ccc(S(=O)(=O)NCCc2csc3nc(-c4ccccc4F)nn23)cc1C returned HTT promoter inh -36% and PMP22 txn 6%.
Screening CCC(CC)C(=O)OCc1cc(=O)n2nc(C3CC3)sc2n1 returned HTT promoter inh -16% and PMP22 txn inconclusive.
`Cc1cc(C)c2oc(C(=O)Nc3nc4ccc(Cl)cc4s3)cc(=O)c2c1` gave HTT promoter inh -2% and PMP22 txn -2%.
CC(=O)N1c2ccc(S(=O)(=O)NCC3CCC(C(=O)Nc4cccc(C)c4C)CC3)cc2CC1C (stereo unspecified) was read as HTT promoter inh inconclusive and PMP22 txn -13%.
Cc1ccc(OCC(=O)Nc2cccc(C(=O)OCc3cc(=O)n4c(C)csc4n3)c2)cc1 was read as HTT promoter inh inconclusive and PMP22 txn inconclusive.
For COc1ccc(NC(=O)Cn2c(=O)n(Cc3ccco3)c(=O)c3cc(OC)c(OC)cc32)cc1 the results were HTT promoter inh -5% and PMP22 txn inconclusive.
Screening O=C(CSc1nc(-c2ccccc2)[nH]c1-c1ccc(F)cc1)NC1CCCC1 returned HTT promoter inh inconclusive and PMP22 txn -4%.
`COCCCNc1nc2cc(OC)c(OC)cc2c2nc(-c3ccccc3)nn12` gave HTT promoter inh -6% and PMP22 txn inconclusive.
COC(=O)c1ccccc1NC(=O)c1cnc(Nc2ccc(OC)cc2)c2ccccc12 was read as HTT promoter inh -7% and PMP22 txn -5%.
For O=C(CSc1ncc(CO)n1Cc1ccccc1)Nc1ccc(C(F)(F)F)cc1 the results were HTT promoter inh inconclusive and PMP22 txn inconclusive.

A portion of the results above, for reference:
Cc1ccc(S(=O)(=O)N(CCc2ccccc2)CC(=O)Nc2ccccc2C)cc1 was read as HTT promoter inh -34% and PMP22 txn -25%.
Cc1ccc(NC(=O)CC2Nc3ccccc3NC2=O)cc1C (stereo unspecified) was read as HTT promoter inh -7% and PMP22 txn 0%.

Additional results
For Cc1ccc(NC(=O)c2ccc(NC(=O)N3CCSc4ncccc43)cc2)c(C)c1 the results were HTT promoter inh -15% and PMP22 txn 6%.
O=Cc1ccc(O)c(O)c1O was read as HTT promoter inh -8%.
Screening CSc1ccc(CCNC(=O)c2ccc3c(c2)nc2n3CCC(C)C2)cc1 (stereo unspecified) returned HTT promoter inh 1% and PMP22 txn inconclusive.
`CC(C)(C)CC(C)(C)c1ccc(O)c(Cc2ccc(Cl)cc2Cl)c1` gave HTT promoter inh 0%.
`O=C(CSc1nc(=O)[nH]c2c1CCCC2)NCc1ccccc1` gave HTT promoter inh -6% and PMP22 txn -5%.
CCCn1cc(S(=O)(=O)c2cc(C)ccc2C)c(=O)c2cc(F)c(N3CCCCCC3)cc21 was read as HTT promoter inh inconclusive and PMP22 txn inconclusive.
`Cc1ncc([N+](=O)[O-])n1C` gave HTT promoter inh 8%.
For COc1cccc(-n2c(=O)c3c4c(sc3n(Cc3ccccc3C#N)c2=O)CCCC4)c1 the results were HTT promoter inh 9% and PMP22 txn 4%.
COc1ccccc1CN1CCC(CNC(=O)c2cnn(-c3ccccc3Cl)c2C2CCN(C(=O)OC(C)(C)C)CC2)CC1 was read as HTT promoter inh -22% and PMP22 txn inconclusive.
For Fc1ccc(-c2noc3ncnc(NCc4ccc(Cl)cc4)c23)cc1 the results were HTT promoter inh -26% and PMP22 txn inconclusive.
Screening Cc1cc(NC(=O)c2ccc(-c3ccc(Cl)cc3)o2)cc(-c2nc3ncccc3o2)c1O returned HTT promoter inh -9% and PMP22 txn 1%.
Cc1cccc(C)c1Nc1c(-c2ccc(N3CCOCC3)cc2)nc2ncccn12 was read as HTT promoter inh -15% and PMP22 txn 0%.
CCOC(=O)C1CCCN(C(=O)c2ccc(C)c(NC(=O)c3nsc4ccccc34)c2)C1 (stereo unspecified) was read as HTT promoter inh -31% and PMP22 txn inconclusive.
For CCOc1ccccc1NC(=O)C1CCN(S(=O)(=O)c2ccc(Br)cc2)CC1 the results were HTT promoter inh -9% and PMP22 txn -5%.
`COc1ccccc1C(=O)Nc1c(C(=O)Nc2ccccc2F)oc2ccccc12` gave HTT promoter inh inconclusive and PMP22 txn inconclusive.
`Cc1cccc(NC(=O)c2c(NC(=O)c3ccco3)sc3c2CCC(C)C3)c1` (stereo unspecified) gave HTT promoter inh 10% and PMP22 txn -3%.
Screening O=C(CC1NCCNC1=O)Nc1cccc(F)c1 (stereo unspecified) returned HTT promoter inh -14% and PMP22 txn 5%.
Screening COc1ccccc1Nc1c2c(nc3ccc(NC(=O)c4cccc(F)c4)cc13)CCCC2 returned HTT promoter inh inconclusive and PMP22 txn 10µM*.
Screening COc1ccc(Cn2c(=O)c3oc4ccccc4c3n(Cc3cccc(C)c3)c2=O)cc1 returned HTT promoter inh -12% and PMP22 txn 14%.
O=C(c1cc(-c2ccc(Cl)cc2)on1)N(Cc1cccc(F)c1)Cc1ccco1 was read as HTT promoter inh -34% and PMP22 txn 4%.
Cc1cccc(Nc2nnc(-c3ccc(C)c(S(=O)(=O)N4CCOCC4)c3)c3ccccc23)c1 was read as HTT promoter inh inconclusive and PMP22 txn -23%.
Screening Cc1ccccc1C(=O)Nc1sc2c(c1C(=O)N1CCC(C)CC1)CCC(C)C2 (stereo unspecified) returned HTT promoter inh inconclusive and PMP22 txn -24%.
`N#Cc1nc(/C=C/c2ccc(F)cc2)oc1N1CCN(c2ccccc2)CC1` gave HTT promoter inh -12% and PMP22 txn -1%.
Cc1cncn1CCc1nc2c3ccccc3nc(SCC(=O)Nc3ccccc3F)n2n1 was read as HTT promoter inh -4% and PMP22 txn 66%.
For CCOc1ccc(C(=O)N2CCN(Cc3cc(=O)n4nc(-c5cccc(OC)c5)sc4n3)CC2)cc1 the results were HTT promoter inh -12% and PMP22 txn -43%.
For Cc1ccc2nc(N(CCCN(C)C)C(=O)c3ccco3)sc2c1 the results were HTT promoter inh 19% and PMP22 txn -132%.
Screening CSc1cccc(NC(=O)N2CCN(S(=O)(=O)c3ccc4c(ccn4C)c3)CC2)c1 returned HTT promoter inh -35% and PMP22 txn -14%.
Screening CCOc1ccc(NS(=O)(=O)c2ccc3[nH]cc(C(=O)NCc4ccccc4)c(=O)c3c2)cc1 returned HTT promoter inh -4% and PMP22 txn inconclusive.
CCOc1ccc2nc(N3CCCC(C(=O)NCCCOC)C3)sc2c1 (stereo unspecified) was read as HTT promoter inh -4% and PMP22 txn 1%.
O=C(NCCc1ccccc1)c1cc(-c2ccc(Br)cc2)on1 was read as HTT promoter inh -10%[11.5 µM] and PMP22 txn 10%.
O=S(=O)(c1ccc(F)cc1)N1CCC(Oc2cccc(C(F)(F)F)c2)CC1 was read as HTT promoter inh -12% and PMP22 txn -4%.
Screening COc1ccccc1NC(=O)C1=C(C)Nc2nc(SCc3ccccc3Cl)nn2C1c1ccncc1 (stereo unspecified) returned HTT promoter inh -14% and PMP22 txn -21%.
`OCCN1C[C@H](O)[C@@H](O)[C@H](O)[C@@H]1CO` gave HTT promoter inh 5%.
CCC(C)NS(=O)(=O)c1ccc(N2CCCCS2(=O)=O)cc1 (stereo unspecified) was read as HTT promoter inh inconclusive and PMP22 txn -6%.
Screening CCc1cc(C(=O)Nc2cnn(Cc3ccccc3C)c2)no1 returned HTT promoter inh 43%[activator] and PMP22 txn 3%.
Cc1ccc2c(c1)sc1nc(-c3cc4cc(Cl)ccc4oc3=O)cn12 was read as HTT promoter inh -27% and PMP22 txn 9%.
For COc1ccc(NC(=O)Cc2csc(COc3cccc(C)c3)n2)c(OC)c1 the results were HTT promoter inh inconclusive and PMP22 txn inconclusive.
Screening Cc1ccccc1CNC(=O)CCCn1ncn2c(cc3occc32)c1=O returned HTT promoter inh -10% and PMP22 txn -8%.
Screening Cc1c(-c2ccccc2)c(=O)oc2c(CN3CCN(C)CC3)c(O)ccc12 returned HTT promoter inh -13% and PMP22 txn inconclusive.
NS(=O)(=O)c1cc2c(cc1Cl)NC(CSCc1ccccc1)=NS2(=O)=O was read as HTT promoter inh 3%.
Screening COc1ccc(NC(=O)CCS(=O)(=O)c2ccc3c(c2)n(C)c(=O)c(=O)n3C)cc1Cl returned HTT promoter inh -14% and PMP22 txn -2%.
FC(F)(F)c1cccc(Nc2nc3nonc3nc2Nc2ccc(Cl)cc2)c1 was read as HTT promoter inh 0.35µM* and PMP22 txn 5.6µM*.
Screening CCN(CC)S(=O)(=O)c1ccc2c(c1)N(CC(=O)N1CCN(c3cc(Cl)ccc3C)CC1)C(=O)CO2 returned HTT promoter inh -9% and PMP22 txn -7%.
Screening Fc1ccc(-c2nc(Nc3cccc(C(F)(F)F)c3)nc3c2COc2ccccc2-3)cc1 returned HTT promoter inh inconclusive and PMP22 txn -3%.

Entries shown so far containing a furan ring, fused or not (10):
Cc1cccc(-n2c(SCC(N)=O)nc3c(oc4ccccc43)c2=O)c1 was read as HTT promoter inh -18% and PMP22 txn -14%.
`O=C(Nc1sc2c(c1C(=O)NCc1ccco1)CCCC2)c1cc(=O)c2cc(Cl)ccc2o1` gave HTT promoter inh 3% and PMP22 txn -2%.
For COc1ccc(NC(=O)Cn2c(=O)n(Cc3ccco3)c(=O)c3cc(OC)c(OC)cc32)cc1 the results were HTT promoter inh -5% and PMP22 txn inconclusive.
Screening Cc1cc(NC(=O)c2ccc(-c3ccc(Cl)cc3)o2)cc(-c2nc3ncccc3o2)c1O returned HTT promoter inh -9% and PMP22 txn 1%.
`COc1ccccc1C(=O)Nc1c(C(=O)Nc2ccccc2F)oc2ccccc12` gave HTT promoter inh inconclusive and PMP22 txn inconclusive.
`Cc1cccc(NC(=O)c2c(NC(=O)c3ccco3)sc3c2CCC(C)C3)c1` (stereo unspecified) gave HTT promoter inh 10% and PMP22 txn -3%.
Screening COc1ccc(Cn2c(=O)c3oc4ccccc4c3n(Cc3cccc(C)c3)c2=O)cc1 returned HTT promoter inh -12% and PMP22 txn 14%.
O=C(c1cc(-c2ccc(Cl)cc2)on1)N(Cc1cccc(F)c1)Cc1ccco1 was read as HTT promoter inh -34% and PMP22 txn 4%.
For Cc1ccc2nc(N(CCCN(C)C)C(=O)c3ccco3)sc2c1 the results were HTT promoter inh 19% and PMP22 txn -132%.
Screening Cc1ccccc1CNC(=O)CCCn1ncn2c(cc3occc32)c1=O returned HTT promoter inh -10% and PMP22 txn -8%.
